Screening results deposited in PubChem by National Center for Advancing Translational Sciences (NCATS).
PINK1 expr mod = changes PINK1 expression; PINK1 immunofluorescence, high-content cytometry, 24 h; Potency, µM (doses to about 76.6 µM), for the others: top-dose activation (PINK1 increase), hits mostly activators; 0.2% of 410,000 active; AID 624263; active = well fitted activation curve with a large enough effect; inconclusive = small, poorly fitted or top-dose-only effect; inactive = flat fitted curve, though single readings scatter; cell line not stated here;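 note: potency is the fitted concentration of half-maximal effect; % of control where 0% means no effect; nearly all actives have a fitted effect of over 65% in size; a mitochondrial uncoupler was the plate control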
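A stable cell line was treated with compounds at 5 concentrations for 24 hours, with CCCP as control. PINK1 levels and mitochondrial localization were measured by immunofluorescence with mitochondrial, cell and nuclear markers after fixation, read by laser-scanning cytometry.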
Menin MLL FP FL = displaces fluorescein MLL peptide from human menin | Fluorescence polarization, fluorescein-MLL peptide displacement from menin | FP activity change, % at 61.4 µM | 290,000 tested, under 10 active | AID 1766; inconclusive = falling polarisation curve, or a change in total fluorescence; inactive = total fluorescence flat and polarisation flat or rising; no compound was filed as active; the % refers to the polarisation; negative = inhibition;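 note: % of control where 0% means no effect; inhibitors lower the polarisation; unlabelled MLL peptide was the positive control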
D2 ag = activates the human D2 dopamine receptor. P14416. activation, % (concentration not given with the values). AID 624465. DiscoveRx PathHunter D2 beta-arrestin, luminescence, 90 min; 100% = 57 uM dopamine signal. 0.084% of 360,000 active; in the data active = activation above about 40%; inconclusive = about 15% to 40%; inactive = below about 15%; note: compound concentration not given in the record; the text of the record calls up to 30% inactive
Target sequence (P14416 whole entry, looked up): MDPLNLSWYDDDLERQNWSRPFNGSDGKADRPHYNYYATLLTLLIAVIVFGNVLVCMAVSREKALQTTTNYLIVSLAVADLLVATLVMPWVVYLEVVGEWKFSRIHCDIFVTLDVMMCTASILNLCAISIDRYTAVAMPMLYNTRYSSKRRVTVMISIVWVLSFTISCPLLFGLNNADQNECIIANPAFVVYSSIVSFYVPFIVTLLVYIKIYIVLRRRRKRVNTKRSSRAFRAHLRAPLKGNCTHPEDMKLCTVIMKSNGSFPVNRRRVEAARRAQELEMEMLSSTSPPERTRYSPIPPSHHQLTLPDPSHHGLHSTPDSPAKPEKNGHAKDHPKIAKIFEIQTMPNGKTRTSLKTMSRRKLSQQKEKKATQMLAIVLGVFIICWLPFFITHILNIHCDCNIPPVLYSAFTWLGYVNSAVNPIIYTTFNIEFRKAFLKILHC
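Agonist mode: compounds alone added to overnight-plated D2 PathHunter cells for 90 min at 37 C, with 57 uM final dopamine (EC100) defining full response. Beta-arrestin recruitment detected by chemiluminescent reagent, read after 1 h at ambient temperature.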
gsp agonist = agonists of gsp mutant (McCune-Albright syndrome); gsp mutant cells, cAMP HTRF, 30 min; control for the full effect not named in the record; Potency, µM (highest dose often 76.9 µM), inactives show top-dose activation (cAMP increase), hits mostly activators; 0.13% of 340,000 active; AID 624287; active = well fitted activation curve with a large enough effect; inconclusive = small, poorly fitted or top-dose-only effect, or another doubt; inactive = no such curve, though single readings can be large or run the other way; cell line not stated here;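 note: phosphodiesterase inhibitor Ro 20-1724 added with compounds to block cAMP breakdown; potency is the fitted concentration of half-maximal effect; nearly all actives have a fitted effect of over 60% in size; about a fifth of the inactives were tested at one dose only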
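Cells in DMEM/10% FBS with G418 were pretreated with compounds in DMSO plus […] (300 uM stock) for 30 min at 37C. cAMP was measured by HTRF (cAMP-d2 plus anti-cAMP antibody-K) after 30 min at room temperature.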
Sfp PPTase inh = inhibitors of Bacillus subtilis Sfp phosphopantetheinyl transferase | Q9F4F7 | Biochemical Sfp PPTase activity, qHTS | Potency, µM, inactives show max response, negative = inhibition, actives largely listed as inhibitors | 3.5% of 310,000 active; active = well fitted inhibition curve with a large enough effect; inconclusive = small, poorly fitted or top-dose-only effect, or another doubt; inactive = no such curve, though single readings can be large or run the other way;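 note: the enzyme is Sfp with the accession as filed and its product quenches rhodamine fluorescence; potency is the fitted concentration of half-maximal effect; 0% = enzyme reaction without inhibitor and -100% = no enzyme wells; top concentration of the series not given in the record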
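Fluorescence-quenching assay: 15 nM Sfp-PPTase preincubated 15 min at room temperature with compound, then 5 uM rhodamine-CoA and 12.5 uM BHQ-2-labelled YbbR peptide added. Fluorescence (ex 525/em 598 nm) read at start and after 30 min; difference gives rate.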
ClpP mod = qHTS Assay for Activators of ClpP; ATP-dependent Clp protease proteolytic subunit (Bacillus subtilis (strain 168)), P80244; purified B. subtilis ClpP, FRET peptide cleavage, 20 min; Potency, µM (top dose mostly 57.5 µM), without a hit: at the highest dose activity change, negative = active; 1.9% of 340,000 active; active = well fitted falling curve with a large enough effect; inconclusive = small, poorly fitted or top-dose-only effect; inactive = no such curve, though single readings can be large or run the other way; note: potency is the fitted concentration of half-maximal effect; the source files actives as falling curves though it sought activators and does not explain the sign; nearly all actives have a fitted effect of over 65% in size; many hits overshoot -100%
Target sequence (P80244 whole entry, looked up): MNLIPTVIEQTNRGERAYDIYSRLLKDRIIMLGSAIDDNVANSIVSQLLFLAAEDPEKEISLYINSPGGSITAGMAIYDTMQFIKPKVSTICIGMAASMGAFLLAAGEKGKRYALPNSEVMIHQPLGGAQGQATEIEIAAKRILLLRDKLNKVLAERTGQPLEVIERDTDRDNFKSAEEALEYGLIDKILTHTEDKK
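Buffer: 100 mM Tris/HCl pH8, 100 mM KCl, 0.05% low protease BSA, 2.5% glycerol, 0.01% Tween-20. ClpP 10 microg/mL final; 20 min RT; delta FRET normalized to ADEP and DMSO controls.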
gsp antagonist = antagonizes gsp, the McCune-Albright syndrome mutation; AID 624288; 0.4% of 340,000 active; Potency, µM (highest dose often 76.9 µM), for the others: at the highest dose activity change, negative = inhibition, most hits filed as inhibitors; gsp-mutant cells, cAMP HTRF, 30 min; control for the full effect not named in the record; active = falling curve of any shape with a large fitted effect; inconclusive = falling curve, mostly with a smaller effect; inactive = flat or rising curve; cell line not stated here;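 note: intracellular cAMP measured with PDE inhibitor Ro 20-1724 present during compound exposure; potency is the fitted concentration of half-maximal effect; % is set by controls: 0 for no effect and ±100 for the full control effect; nearly all actives have a fitted effect of over 65% in size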
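HTRF cAMP read-out (cAMP-d2 plus anti-cAMP antibody-K in lysis buffer, 30 min RT). Before lysis, cells are exposed to compounds with […] for 30 min at 37C in DPBS containing Ca/Mg, BSA and Tween 20.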
An asterisk follows results filed as active; ? = inconclusive; . = no result given; & = joins results of further samples; [ ] = remark or other dose.

SMILES	PINK1 expr mod	Menin MLL FP FL	D2 ag	gsp agonist	Sfp PPTase inh	ClpP mod	gsp antagonist
Cc1ccc(C(=O)Nc2nnc(-c3ccc(C(C)(C)C)cc3)s2)cc1	-1.5%	0.0	0.1	?	5%	-11%	-2%
COc1ccc(Cl)cc1C(=O)NC(C)C	0.8%	3.3	-4.7	17%[15.4 µM]	22%	.	9%
COc1cccc(COC(=O)C2CCN(S(=O)(=O)c3ccc(Cl)cc3)CC2)c1OC	-2.5%	.	0.9	-28%[15.4 µM]	.	.	2%
CCOC(=O)c1cccc(NC(=O)Cn2cnc3c2c(=O)n(C)c(=O)n3C)c1	3.0%	-0.1	-1.1	?	9%	0.9%	11%
N#CCC(=O)N1CC2(CC(c3cccc(NC(=O)COc4ccc(Cl)cc4)c3)=NO2)C[C@@H]1C(N)=O (stereo partly specified)	0.6%	0.0	-2.7	.	6%	-2.3%	5%
CCOC(=O)N1CCN(c2c(Nc3cc(C)[nH]n3)c(=O)c2=O)CC1	0.7%	-0.1	-2.0	1%	4%	-3.0%	-8%
Cc1cc(-c2ccc(/C=N/n3cnnc3)o2)c(C)c([N+](=O)[O-])c1	-0.7%	-0.8	7.6	?	-19%	1.4%	-19%
O=C(O)c1ccc(N=NN2CCCCC2)cc1	-1.0%	-1.3	-2.7	11%[15.4 µM]	3%	.	6%
CCOc1cc(N2CCOCC2)c(OCC)cc1NC(=O)c1c(C)noc1C	13%	.	0.2	-11%	.	0.7%	35µM*
Cc1ccc(-c2cc(-c3ccccc3)[nH]c(=S)c2C#N)cc1	-2.0%	-1.4	-0.5	?	8%	-6.2%	1%
S=c1[nH]nc(-c2cccc(Cl)c2)n1Cc1ccccc1	-1.0%	4.4	2.8	0%	-18%	-4.0%	12%
Cc1cccc(N2CCN(C(=O)c3ccc4nc(N5CCCCC5)sc4c3)CC2)c1C	0.2%	3.9	-2.9	27%[15.4 µM]	-10%	.	0%
COc1cc(C=O)cc(OC)c1OS(=O)(=O)c1ccc(NC(C)=O)cc1	-2.5%[38.3 µM]	5.8	-1.5	-8%	0%	-2.0%	-10%
COc1ccc(CC(=O)OCC(=O)NCc2ccccc2Cl)cc1	-0.7%	1.0	-1.5	3%[15.4 µM]	6%	.	4%
c1ccc(-c2nnc3oc(-c4cccs4)nn23)cc1	-1.0%	.	-4.6	37%	.	-2.8%	.
Cc1ccc(/C=N/n2c(COc3ccccc3)n[nH]c2=S)o1	-0.3%	-0.5	1.2	-8%	45µM*	0.6%	-24%
CCOC(=O)CSc1nnc(-c2cccnc2)n1C	-1.2%	0.3	1.8	-8%	9%	.	2%
CC(C)CC(NS(=O)(=O)c1ccc2c(c1)oc(=O)n2C)C(=O)NCc1cccnc1 (stereo unspecified)	-1.0%	2.1	-7.4	-34%[inhibitor]	2%	-0.1%	4%
COc1ccc(-n2c(-c3ccco3)nc3c(cnn3-c3ccccc3C)c2=O)cc1	3.3%&-1.3%	3.6	-7.0	0%	8%	-0.6%&-4.6%	-9%
Nc1ccc(C(=O)OCC(=O)c2cccc([N+](=O)[O-])c2)cc1	0.1%	2.4	8.0	0%[15.4 µM]	-8%	.	1%
Clc1cccc(OCc2nc(-c3ccncc3)n[nH]2)c1	0.8%	-1.2	2.2	-1%[15.4 µM]	-7%	.	24%
CCCOc1ccc(S(=O)(=O)N2CCOCC2)cc1[N+](=O)[O-]	0.9%	-3.9	-1.9	6%[15.4 µM]	17%	-2.8%	2%
CSc1nnc(-c2cc3c(-c4ccccc4)nn(C)c3s2)n1C	-0.5%	2.2	-2.8	-9%	1%	?	1%
Cn1c(=O)n(CCOc2ccc([N+](=O)[O-])cc2)c2ccccc21	-1.2%	0.9	-0.6	1%[15.4 µM]	-8%	.	4%
Cc1ccc(Nc2nc(CSc3nnc(-c4ccccc4)n3C)cs2)cc1	-2.0%	12	0.1	-12%	-49%	-1.5%	-14%
COc1ccccc1C(=O)NC(CCSC)C(=O)OCC(=O)c1ccc[nH]1 (stereo unspecified)	-1.3%	0.9	0.8	9%	17%	-1.4%	8%
CC(=O)N1CCN(c2nc(-c3ccco3)c3c(c2C#N)CC(C)(C)SC3)CC1	-1.5%	1.0	-4.5	6%	45µM*	?	?
COC(=O)c1ccc(N=Nc2ccccc2)cc1	10%	7.6	4.9	-8%[15.4 µM]	11%	.	9%
Cc1sc2ncnc(N[C@@H](Cc3c[nH]c4ccccc34)C(=O)O)c2c1C	1.6%	4.6	-3.4	3%	18%	2.0%	16%
COc1ccccc1N(C(=O)c1snc(C(N)=O)c1N)C(C(=O)NC1CCCC1)c1ccc2ncccc2c1 (stereo unspecified)	7.4%	2.5	3.5	-6%	20%	.	-16%
COc1ccccc1-c1nc(=S)c(C(C)=O)c(C)[nH]1	0.1%	3.9	-4.7	3%[15.4 µM]	?	-0.7%	5%
CCOC(=O)N1CCN(C(=O)Cc2ccccc2[N+](=O)[O-])CC1	2.1%	6.2	-5.2	22%	19%	4.8%	4%
CC(O)C(=O)N/N=C/c1cccc2ccccc12 (stereo unspecified)	1.0%	2.2	3.7	3%	15%	-7.4%	1%
OCC1(Cc2ccccc2C(F)(F)F)CCN(Cc2ccccc2)CC1	5.0%	1.1	-2.7	2%	5%	.	9%
COc1cccc(C2C(C(=O)c3cc4ccccc4o3)=C(O)C(=O)N2c2cc(C)on2)c1OC (stereo unspecified)	-0.5%	1.3	-0.5	?	19%	-2.2%	6%
Cc1cc(-c2csc(NC(=O)c3ccc(=O)[nH]c3)n2)c(C)n1Cc1ccco1	3.2%	?	-1.5	-2%	4.5µM*	.	-4%
Nc1nonc1-n1nnc(C(=O)N/N=C/c2ccccc2Cl)c1CN1CCOCC1	0.6%	.	3.9	-30%	-5%	0.0%	-15%
O=S(=O)(Nc1ccc(F)cc1)N1CCCCCC1	5.3%	-0.1	-3.0	-16%	10%	2.0%	1%
CCCS(=O)(=O)NC(=O)C1(C)CCN(C(=O)c2ccc(F)c(Cl)c2)C1 (stereo unspecified)	-0.4%	.	2.1	.	.	-0.4%	.
COc1cc2cc(C)nc(Cc3cccc4ccccc34)c2cc1OC	8.5%	3.9	-0.2	-5%	?	-10%	9%
CC(=O)Nc1ccc(S(=O)(=O)NCCNc2ccccc2[N+](=O)[O-])cc1	2.1%	0.7	-9.2	0%	-8%	-2.6%	1%
CCOc1ccc2c(=O)c(Oc3ccccc3OCC)coc2c1	0.6%	-1.4	-1.5	-9%	-5%	-4.9%	-13%
Cc1ccc(NC(=S)NCCN(C2CCCCC2)C2CCCC2)cc1C	?	-1.5	0.8	-7%[15.4 µM]	0%	.	-1%
O=C1CN(S(=O)(=O)c2cc(Cl)ccc2Cl)c2ccccc2N1	-0.7%	9.1	-2.3	-10%[15.4 µM]	7%	.	-10%
COc1ccccc1NC(=O)CCN1C(=O)C2CC=C(Cl)CC2C1=O (stereo unspecified)	-5.6%[38.3 µM]	5.7	1.9	21%	6%	-0.2%	11%
NS(=O)(=O)c1ccc(N/N=C/c2cn(-c3ccccc3)nc2-c2cccs2)cc1	-0.7%	11	6.7	0%	10%	16µM*	-12%
O=C(O)c1ccc(N=C2SCC(=O)N2Cc2ccccc2)cc1	-0.9%	-0.6	-6.3	-24%[15.4 µM]	11%	.	-8%
Cc1noc(C)c1COc1ccc(C(=O)NCc2cccs2)cc1	2.5%	.	-0.8	7%[15.4 µM]	.	-3.3%	-7%

Two entries from above, with values under each structure:
Values run as follows: PINK1 expr mod | Menin MLL FP FL | D2 ag | gsp agonist | Sfp PPTase inh | ClpP mod | gsp antagonist
CCCS(=O)(=O)NC(=O)C1(C)CCN(C(=O)c2ccc(F)c(Cl)c2)C1 (stereo unspecified)
→ -0.4% | . | 2.1 | . | . | -0.4% | .
COc1cc2cc(C)nc(Cc3cccc4ccccc34)c2cc1OC
→ 8.5% | 3.9 | -0.2 | -5% | ? | -10% | 9%

Carrying on.
SMILES	PINK1 expr mod	Menin MLL FP FL	D2 ag	gsp agonist	Sfp PPTase inh	ClpP mod	gsp antagonist
CC1CCCC(NC(=O)COC(=O)CSc2ccc3ccccc3c2)C1C (stereo unspecified)	1.5%	0.3	-2.1	23%	-2%	.	5%
CCN(CC)CCN1C(=O)C(=O)/C(=C(/O)c2ccc(OC)cc2)C1c1ccco1 (stereo unspecified)	1.1%	-0.4	-4.9	7%[15.4 µM]	-6%	-2.1%	2%
O=C(CCc1nc2ccccc2c(=O)[nH]1)OCc1ccc(-c2ccccc2)cc1	?	3.4	6.9	?	-14%	-1.3%	6%
CN(Cc1nc(-c2cccs2)no1)CC1(N2CCOCC2)CCCCC1	-1.0%	-0.4	6.7	6%	8%	-1.5%	-9%
Cc1ccc(C(=O)Nc2ccc3nc(C)sc3c2)o1	0.8%	.	-3.1	-73%[inhibitor]	.	-0.1%	.
O=C1C2CC=CCC2C(=O)N1CNc1ccccc1 (stereo unspecified)	0.7%	0.4	-0.9	-27%	18%	1.2%	15%
CCOC(=O)c1c(C)n(-c2ccc(F)cc2)c2ccc(O)cc12	7.2%	0.6	6.9	11%	?	-2.4%	0%
COC(=O)CC1=C(C)C(=O)CC2C(C)(C)CCCC12C (stereo unspecified)	-1.2%[38.3 µM]	1.0	1.6	?	9%	-1.0%	-8%
CCOc1ccc(OCC)c(NC(=O)CN(C)S(=O)(=O)c2cccc3nsnc23)c1	-2.0%	8.4	-2.6	-24%	?	1.4%	5%
O=C(O)CC1=C(O)C(=O)N(c2ccccc2)C1c1ccccc1 (stereo unspecified)	2.2%	-1.1	-2.1	-2%	-26%	0.4%	6%

Compound profiles, as listed above.
CCOc1ccc(OCC)c(NC(=O)CN(C)S(=O)(=O)c2cccc3nsnc23)c1 across the screens: PINK1 expr mod: -2.0%; Menin MLL FP FL: 8.4; D2 ag: -2.6; gsp agonist: -24%; Sfp PPTase inh: ?; ClpP mod: 1.4%; gsp antagonist: 5%
O=C(CCc1nc2ccccc2c(=O)[nH]1)OCc1ccc(-c2ccccc2)cc1 across the screens: PINK1 expr mod: ?; Menin MLL FP FL: 3.4; D2 ag: 6.9; gsp agonist: ?; Sfp PPTase inh: -14%; ClpP mod: -1.3%; gsp antagonist: 6%
